Screening results deposited in PubChem BioAssay by several laboratories.
ALR inh = human ALR oxidase inhibition via reduced H2O2. purified ALR, DTT oxidation, H2O2 HRP-luminol luminescence. inhibition, % (concentration not given with the values). P55789. 3.8% of 290,000 active. AID 485317;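 active means mean and each replicate at 75% or more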;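 further: stock transfer was 7.5 nL into about 7.5 µL; 0% = neutral wells and 100% = wells with inactivated enzyme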
Target sequence (P55789 whole entry, looked up): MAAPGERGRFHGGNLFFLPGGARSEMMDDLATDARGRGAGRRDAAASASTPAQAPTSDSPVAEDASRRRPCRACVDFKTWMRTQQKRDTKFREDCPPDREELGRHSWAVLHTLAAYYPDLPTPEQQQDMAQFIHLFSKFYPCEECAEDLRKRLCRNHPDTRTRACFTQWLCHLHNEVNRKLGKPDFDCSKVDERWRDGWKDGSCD
Ecoli growth = E. coli growth inhibition; Escherichia coli growth, OD600, 23 h; stronger effect = lower value; OD600 absorbance (test concentration not listed); 0.21% of 330,000 active; AID 1053175;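 active means OD600 absorbance below the run mean of sample wells minus 3.6 SD, in any replicate, cut at about 0.56 in these data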;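 further: stock transfer was 300 nL into about 60 µL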
Ecoli rRNA inh = inhibits bacterial ribosomal RNA function over humanized ribosomes | E. coli WT GFP vs humanized-ribosome RFP mutants, fluorescence, 24 h; stronger effect = lower value; DMSO median 0, no signal -100 | GFP signal change (wild-type ribosome), % (no concentration beside the values) | 1.6% of 350,000 active | AID 720706;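 active means significant combined selectivity score with lowered wild-type GFP, culture density cut under 30%, mutant RFP and density less affected; inactive means any of these conditions unmet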; further: one replicate is shown; some compounds called inactive have numbers as strong as hits
FGF22 binding = FGF22 (human) thermal shift binding; Q9HCT0; recombinant FGF22 thermal shift, SYPRO orange fluorescence; percent of sucrose octasulfate shift, DMSO zero; calls only at 9.99 µM; 1.5% of 340,000 active; AID 651658;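 active means melting point raised past a set limit in the mean and every replicate; three in four hits are not shown here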
UCH37 inh = human UCH37 deubiquitinating enzyme inhibition. purified proteasome/UCH37, Ub-AMC cleavage fluorescence. inhibition, % (test concentration not listed). AID 588478. Q9Y5K5. 0.33% of 330,000 active;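 active means mean of two replicates above 20%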;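 further: 0% = compound-free wells with enzyme and 100% = wells lacking proteasome; stock transfer was 100 nL into about 20 µL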
Target sequence (Q9Y5K5 whole entry, looked up): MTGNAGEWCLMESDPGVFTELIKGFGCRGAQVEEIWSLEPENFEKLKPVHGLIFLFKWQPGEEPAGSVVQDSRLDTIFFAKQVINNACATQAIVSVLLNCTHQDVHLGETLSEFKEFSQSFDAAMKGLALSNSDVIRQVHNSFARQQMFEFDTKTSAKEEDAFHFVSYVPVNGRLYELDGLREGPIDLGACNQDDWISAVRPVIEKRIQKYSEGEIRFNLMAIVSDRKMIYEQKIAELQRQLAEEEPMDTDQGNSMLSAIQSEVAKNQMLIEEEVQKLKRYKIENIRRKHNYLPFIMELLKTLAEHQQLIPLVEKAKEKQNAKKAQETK
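Material: human UCH37 enzyme supplied as purified proteasome complex. Measure: % inhibition of Ub-AMC cleavage fluorescence. Medium: pH 7.4 Tris-HCl (50 mM) with ovalbumin, ATP-MgCl2, DTT. Times: 30 min preincubation with enzyme, 25 min cleavage at room temperature. Detection: AMC fluorescence intensity at 355/460 nm.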
B2AR ag = human beta-2 adrenergic receptor agonism by FAP; Am2.2-beta2AR cells, FAP receptor internalization, flow cytometry; reference of the scale not given here; response, % (concentration not given with the values); 0.43% of 340,000 active; AID 504454;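 active means response above a set limit, near 3 SD of response in nonfluorescent compounds, cut at about 42% in these data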;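 further: stock transfer was 100 nL into about 11 µL; a reference agonist was the positive control; negative values mostly stem from fluorescent compounds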
HNF4A DNA FP = change in binding of human HNF4 alpha to DNA. 0.3% of 360,000 active. activity change, % at 10 µM. P41235. AID 1224865. HNF4a-FITC DNA binding, fluorescence polarization, 1 h; in the data active means activity change above about 30%, passing the limit was not always enough;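 further: controls were the assay level and a saturating level of protein; the project sought stronger binding though the title names inhibitors; some compounds called inactive have numbers as strong as hits; positive values seem to mean higher polarization but the record does not say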
Target sequence (P41235 whole entry, looked up): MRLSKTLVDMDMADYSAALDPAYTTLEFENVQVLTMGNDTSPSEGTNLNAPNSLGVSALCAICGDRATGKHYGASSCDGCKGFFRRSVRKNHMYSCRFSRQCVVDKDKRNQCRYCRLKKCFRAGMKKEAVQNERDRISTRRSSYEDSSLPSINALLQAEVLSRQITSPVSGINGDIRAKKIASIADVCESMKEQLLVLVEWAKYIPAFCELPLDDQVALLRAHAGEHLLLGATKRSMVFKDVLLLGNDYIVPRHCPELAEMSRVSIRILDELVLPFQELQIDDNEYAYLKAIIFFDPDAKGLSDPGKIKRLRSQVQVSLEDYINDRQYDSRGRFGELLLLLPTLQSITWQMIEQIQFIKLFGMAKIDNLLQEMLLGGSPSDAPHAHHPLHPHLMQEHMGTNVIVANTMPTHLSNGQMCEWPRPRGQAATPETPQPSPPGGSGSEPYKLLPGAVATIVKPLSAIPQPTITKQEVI
Ecoli rRNA inh OD600 = second read-out of Ecoli rRNA inh, no call of its own (marks repeat the call); OD600 change, %; measured here: OD600 growth;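 optical density of the mix in the first replicate; 0 = DMSO median and -100 = no signal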
Ecoli rRNA inh RFP = also measured in Ecoli rRNA inh; calls as there; RFP signal change, %; measured here: RFP humanized mutant strains;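 first replicate; 0 = DMSO median and -100 = no signal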
Numbers without * were called inactive; i = inactive; · = not tested or not shown; & = joins results of further samples. An excerpt. The share of hits here may be higher or lower than overall.

SMILES | ALR inh | Ecoli growth | Ecoli rRNA inh | Ecoli rRNA inh OD600 | Ecoli rRNA inh RFP | FGF22 binding | UCH37 inh | B2AR ag | HNF4A DNA FP
COc1ccc(C(c2c(NC(=O)c3ccco3)sc(C)c2C)N2CCOCC2)cc1OC (stereo unspecified) | · | 0.627 | · | · | · | i | -0.5 | 6.4 | 0.3
Cc1nc(-c2ccc(S(=O)(=O)N3CCOCC3)cc2)cs1 | 93.4* | 0.72 | 13.7 | 3.9 | 1.5 | i | 0.1 | 1.8 | 4.5
C=CCNC(=O)CSc1nc2ccccc2c(=O)n1CCc1ccc(OC)c(OC)c1 | -10.8 | 0.686 | 5.2 | 7.4 | 16.5 | i | 2.1 | -2.9 | -1.5
CCOC(=O)C(=O)NCC(c1cccs1)S(=O)(=O)c1ccc(Cl)cc1 (stereo unspecified) | 4.6 | 0.623 | 8.0 | 10.4 | -2.5 | i | 0.8 | 3.4 | -0.1
COc1cc(CNn2cnnc2)ccc1OCC(=O)NC(C)(C)C | -2.1 | 0.672 | · | · | · | · | 4.5 | 2.9 | -0.2
O=C(c1ccccc1)c1cc(Cl)ccc1N1C(=O)C=CC1=O | · | 0.663 | · | · | · | i | 4.7 | 42.8* | 3.2
CCOC(=O)CC(=O)Nc1cc2ccc(OC)c(OC)c2cc1C(=O)OCC | · | · | -1.3 | 9.7 | 7.8 | i | · | · | -3.3
O=C(NC1CC1)C1=C[C@H](c2csc3ccccc23)C[C@H](OCCCCO)O1 | · | · | -4.5 | 2.5 | 14.4 | i | 5.2 | -6.5 | 1.1
CC(C)CCC1=NN(C(=O)c2ccco2)C(O)(C(F)(F)F)C1 (stereo unspecified) | -3.4 | 0.725 | -12.2 | -23.7 | -1.8 | i | 5.3 | 0.3 | 0.7
O=C(/C=C/c1ccccc1)NC1CCCc2ccccc21 (stereo unspecified) | 3.3 | 0.646 | · | · | · | · | -0.4 | · | ·
O=C(Nc1ccc2c(c1)OCCO2)C(c1ccccc1F)n1c(=O)c(-c2cc3ccccc3[nH]2)nc2ccccc21 (stereo unspecified) | · | · | 11.8 | 1.5 | 0.2 | i | · | · | 4.3
CC(C)(C)c1ccc(S(=O)(=O)N2CCN(C(=O)c3ccc4c(c3)C(=O)N(Cc3ccncc3)C4=O)CC2)cc1 | · | 0.686 | 6.4 | 7.9 | -0.8 | i | 1.6 | 3.0 | 6.3
COc1ccc(-c2noc(-c3ccccc3-c3ccccc3)n2)cc1OC | -2.3 | 0.731 | · | · | · | · | 6.0 | -4.9 | 2.7
CC(C)(C)C(=O)Cn1ncc(N2CCCC2)c(Br)c1=O | -4.4 | 0.703 | · | · | · | · | 2.1 | -9.9 | -5.3
C[C@H](CO)N1C[C@H](C)[C@@H](CN(C)S(=O)(=O)c2cccs2)Oc2ccc(NC(=O)Nc3ccc(C(F)(F)F)cc3)cc2C1=O | -4.4 | 0.772 | 0.8&0.3 | 6.9&-16.4 | 1.7&-14.4 | i | -2.8 | 3.2 | 1.8
Cc1sc(C(=O)NCc2cccnc2)c2nc(C)n(CC(=O)NCc3cccnc3)c(=O)c12 | -5.3 | 0.746 | · | · | · | · | 1.7 | 3.1 | -1.7
CC(NC(=O)CSc1nc(C2CC2)n(-c2ccccc2)n1)c1ccco1 (stereo unspecified) | · | 0.652 | -3.7 | -3.6 | 0.8 | i | 2.8 | -15.1 | -1.2
O=C(O)C1CCCCC1C(=O)NCCCN1CCCC1=O (stereo unspecified) | -2.2 | 0.67 | -2.7 | 3.9 | -3.5 | i | 4.8 | 1.7 | -1.0
O=C(NC(CO)(CO)CO)c1coc(=O)c(Br)c1 | -0.8 | 0.648 | · | · | · | · | 7.4 | 1.2 | 0.5
NC(=O)c1sc2nc(N3CCCCC3)c3c(c2c1N)CCCC3 | -13.3 | 0.645 | · | · | · | · | -35.5 | -2.0 | 1.8
Cc1nnc(C)n1/N=C/c1ccccn1 | -13.3 | · | · | · | · | · | · | -2.0 | -1.2
CC1(C)Oc2ccc3ccc(=O)oc3c2C(/C=N/O)C1=O (stereo unspecified) | -6.0 | · | 12.8 | 3.1 | 5.3 | i | · | 0.5 | 0.3
CCN(C(=O)COC(=O)c1cccc(NS(=O)(=O)c2ccc(F)c(F)c2)c1)C1CCS(=O)(=O)C1 (stereo unspecified) | 42.2 | 0.668 | · | · | · | · | 0.5 | · | ·
C#CCOCCOCCOCCNc1nc(N2CCN(C(=O)[C@H](CCCCN)n3cc(CC(C)O)nn3)CC2)nc(N2CCN(C(=O)[C@H](Cc3ccc(O)cc3)n3cc(CCO)nn3)CC2)n1 (stereo partly specified) | · | · | 13.6 | 13.2 | -5.3 | i | · | 7.4 | -3.2
NNc1cc(C(=O)O)ccc1Cl | 1.6 | 0.662 | 3.9 | 5.5 | -2.4 | i | 1.8 | -4.4 | -6.4
[O-][n+]1c2ccccc2[n+]([O-])c2cc(O)ccc21 | 37.5 | 0.398* | -12.5 | -22.9 | -3.8 | i | 8.4 | -4.0 | -9.1
CCOc1ccc2nc(SCC(=O)Nc3ncccn3)[nH]c2c1 | 6.7 | 0.71 | · | · | · | · | 2.2 | -2.2 | 5.5
O=C(c1ccccc1NS(=O)(=O)c1cccc([N+](=O)[O-])c1)N1CCCC1 | -2.8 | 0.7 | 9.7 | 8.4 | -3.9 | i | 0.8 | -1.9 | 0.0
CS/C(N)=N/N=C/c1cc(C)ccc1O | -12.0 | · | 0.6 | -2.9 | -2.2 | i | · | -2.4 | -5.0
Cc1cc(C)n2ncc(/C(N)=N/OC(=O)Nc3ccc(Cl)cc3)c2n1 | 36.6 | 0.598 | · | · | · | i | 1.4 | 0.9 | 0.3
COc1ccc(/C=C/C(=O)NCCCN2CCCC2)cc1 | -1.1 | 0.661 | 6.7 | 10.0 | 4.5 | i | 5.0 | -5.5 | -0.8
O=C(CN1CC[n+]2c(-c3cccs3)csc21)c1ccc(Br)cc1 | 98.4* | 0.677 | 18.2 | 13.8 | 14.8 | i | 11.6 | 16.8 | 0.3
CC(OC(=O)c1nccnc1N)C(=O)Nc1ccc(S(=O)(=O)N2CCCC2)cc1 (stereo unspecified) | · | 0.656 | 6.7 | 12.1 | 0.6 | i | i | -4.9 | -0.1
CCCN(CCC)CCCNS(=O)(=O)c1ccc2c(c1)oc(=O)n2C | -1.9 | 0.677 | · | · | · | · | 3.7 | -19.4 | 5.7
Cc1ccc(NC(=S)N(C)C(c2ccccc2)c2ccccc2)cc1C | · | 0.676 | -3.7 | -11.9 | 4.6 | i | -0.1 | 4.0 | 2.2
OC(COc1ccc(Cl)cc1)CN1CCN(c2ccccn2)CC1 (stereo unspecified) | 21.9 | 0.612 | -21.8* | -7.2* | 0.4* | i | 6.5 | -8.4 | -2.1
O=C(CN1CCN(c2cnn(-c3ccccc3)c(=O)c2Cl)CC1)NC1CCS(=O)(=O)C1 (stereo unspecified) | · | 0.734 | 10.4 | 16.7 | 0.1 | i | 8.2 | -4.5 | -1.2
CCC(C)(C)n1nnnc1C(c1ccc(Cl)cc1)N1CCN(C)CC1 (stereo unspecified) | -2.7 | 0.762 | · | · | · | · | 4.6 | 11.0 | 0.8
O=C(COc1ccc(/C=N/NC(=O)c2cccnc2)cc1)Nc1ccccc1 | -10.3 | · | 8.5 | 4.9 | -1.4 | i | · | -6.2 | -1.2
NC(c1ccccc1)c1csc(Nc2ccc(C(=O)NCCCO)cn2)n1 (stereo unspecified) | · | · | -1.1 | 5.2 | -1.2 | i | · | · | -6.2
CCOc1ncccc1C(=O)OCC(=O)N1CCC(C)CC1 | · | 0.686 | 5.6 | 8.7 | -4.4 | i | 2.1 | -4.9 | -5.1
O=C(Nc1ccc(O)cc1)/C(=C\C=C\c1ccccc1)NC(=O)c1ccccc1 | 72.7 | 0.692 | -14.7 | -1.7 | 7.8 | i | 7.7 | 1.1 | 5.6
Clc1cc(NCc2ccccc2)ncn1 | -3.7 | 0.675 | 8.4 | 7.1 | -0.9 | i | 2.1 | -0.9 | -1.3
COc1ccccc1N1C(=O)N(CC(=O)C(C)(C)C)c2ccccc2S1(=O)=O | 52.9 | 0.677 | 26.0 | 14.5 | 0.8 | i | 1.5 | -6.0 | 0.1
CN(CC(=O)Nc1c(Cl)cccc1Cl)C(=O)c1cccc(S(=O)(=O)NCc2ccccc2)c1 | 4.9 | 0.708 | -1.3 | -8.4 | 1.7 | i | 4.0 | 0.8 | 3.6
COC(=O)C1C(=O)C2=C(CC1C)NC(=O)CC2c1ccc(F)cc1 (stereo unspecified) | 2.9 | 0.701 | 2.9 | 5.1 | 0.5 | i | 0.1 | -1.0 | -2.1
COc1cccc(OC)c1C(=O)NC(=S)NCc1ccccc1 | -13.7 | 0.676 | 8.3 | 5.3 | 0.9 | i | -0.3 | -2.9 | -0.9
CC(C)c1ccc(C2c3[nH]c4ccccc4c3C[C@H]3C(=O)N(c4ccccc4C(=O)N4CCC(C(=O)O)CC4)C(=O)N23)cc1 (stereo partly specified) | 98.0* | 0.775 | -1.9 | 3.4 | -8.3 | i | 1.3 | 0.6 | 3.5
COc1ccc(C(C(=O)NC2CCCCC2)N(Cc2ccco2)C(=O)CNC(=O)c2ccco2)cc1 (stereo unspecified) | -4.4 | 0.752 | · | · | · | · | -1.1 | 3.4 | -3.3
c1csc(CSc2nc3ccccc3s2)c1 | 93.8* | 0.684 | · | · | · | · | 2.3 | 3.3 | -1.2
O=C(NCc1ccc2c(c1)OCO2)C1CCC(CNc2c(N3CCCC3)c(=O)c2=O)CC1 (stereo unspecified) | -6.9 | 0.75 | -0.1 | 3.4 | -1.9 | i | 2.6 | 3.9 | -1.9
Cc1cc(S(=O)(=O)N2CCOCC2)c(C)s1 | -3.7 | 0.688 | 8.6 | 4.2 | -2.4 | i | 4.6 | 3.3 | 1.6
Cc1cc(C(=O)OCC(=O)NC(C)(C)C)c2ccccc2n1 | -1.5 | 0.665 | -2.3 | 0.7 | -3.2 | i | -8.6 | 0.4 | -1.8
CCOC(=O)c1cn(Cc2ccc(Cl)cc2Cl)c2cc(C)nn2c1=O | · | 0.69 | -12.9 | -8.5 | -2.0 | i | -42.1 | 0.4 | 1.2
Cc1ccc(OCCOC(=O)c2cccc(S(=O)(=O)N3CC(C)OC(C)C3)c2)cc1 (stereo unspecified) | 3.2 | 0.694 | -6.8 | -19.1 | -1.6 | i | 2.6 | 4.8 | 5.9
COc1ccc(Cl)cc1C(=O)OCC(=O)c1c(N)n(C)c(=O)n(C)c1=O | · | · | 14.6 | 18.4 | -0.4 | i | · | · | 6.2
Cc1ccc(S(=O)(=O)CCc2nnc(NC(=O)c3ccccn3)s2)cc1 | -9.0 | 0.689 | · | · | · | · | 4.0 | -5.1 | -2.4
COc1ccc(CC(=O)Nc2cccc(C(=O)O)c2C)cc1 | -9.5 | 0.653 | 13.9 | 9.1 | 2.2 | · | 0.7 | 5.8 | 3.1

Three of the entries above in order of the Ecoli rRNA inh value, ascending.
mol	Ecoli rRNA inh
CCOC(=O)c1cn(Cc2ccc(Cl)cc2Cl)c2cc(C)nn2c1=O	-12.9
Cc1ccc(OCCOC(=O)c2cccc(S(=O)(=O)N3CC(C)OC(C)C3)c2)cc1 (stereo unspecified)	-6.8
Cc1cc(S(=O)(=O)N2CCOCC2)c(C)s1	8.6
